Rango release inh – prevents RanGTP from dissociating the Rango-importin beta complex | O95149+P62826 | Biochemical FRET Rango-importin beta, RanGTP-induced dissociation | 0.071% of 340,000 active | Potency, µM (highest dose often 46.1 µM), for inactives: at the top dose activity change, negative = inhibition; active means falling FRET ratio curve, often poorly fitted, with flat reads before Ran was added; inconclusive means other falling curves, or compound fluorescence or quenching; inactive means flat or rising ratio curve;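 further: potency means the concentration at half of the fitted maximal effect; % of control where 0% means no effect; nearly all actives have a fitted effect of over 45% in size; -100% = wells without RanGTP and RCC1; the record marks most hits as doubtful in a second field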
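Rango (0.1 uM)–importin beta (0.25 uM) complex; RanGTP-RCC1 trigger; 45 min RT; CFP/YFP FRET read.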
GLA inh pH 4.5 – blocks human alpha-galactosidase A at pH 4.5. AID 1467. activity change, negative = inhibition, % at 105 µM. purified enzyme, 4-MU-alpha-Gal fluorescence, pH 4.5. 230,000 tested, under 10 active; inconclusive = small, poorly fitted or top-dose-only inhibition, or a rising curve; inactive = flat fitted curve, though single readings scatter; no compound was filed as active;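 further: 0% = full activity with enzyme and -100% = basal without enzyme; dose as in the result columns while the protocol names 77 µM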
Rango-impB inh – inhibitors of Rango-importin beta complex formation; Rango CFP/YFP FRET sensor + importin beta, 45 min; 0.031% of 340,000 active; Potency, µM (titrated, usually from 92.2 µM), without a hit: at the top dose inhibition of complex formation; Q14974; AID 540263; active = rising FRET ratio curve, often small or poorly fitted; inconclusive = mostly compound fluorescence or quenching in the first reads; inactive = flat curves in all reads;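 further: potency means the concentration at half of the fitted maximal effect; 0% = DMSO wells and 100% = buffer wells lacking importin beta; nearly all actives have a fitted effect of over 15% in size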
Target sequence (Q14974 whole entry, looked up): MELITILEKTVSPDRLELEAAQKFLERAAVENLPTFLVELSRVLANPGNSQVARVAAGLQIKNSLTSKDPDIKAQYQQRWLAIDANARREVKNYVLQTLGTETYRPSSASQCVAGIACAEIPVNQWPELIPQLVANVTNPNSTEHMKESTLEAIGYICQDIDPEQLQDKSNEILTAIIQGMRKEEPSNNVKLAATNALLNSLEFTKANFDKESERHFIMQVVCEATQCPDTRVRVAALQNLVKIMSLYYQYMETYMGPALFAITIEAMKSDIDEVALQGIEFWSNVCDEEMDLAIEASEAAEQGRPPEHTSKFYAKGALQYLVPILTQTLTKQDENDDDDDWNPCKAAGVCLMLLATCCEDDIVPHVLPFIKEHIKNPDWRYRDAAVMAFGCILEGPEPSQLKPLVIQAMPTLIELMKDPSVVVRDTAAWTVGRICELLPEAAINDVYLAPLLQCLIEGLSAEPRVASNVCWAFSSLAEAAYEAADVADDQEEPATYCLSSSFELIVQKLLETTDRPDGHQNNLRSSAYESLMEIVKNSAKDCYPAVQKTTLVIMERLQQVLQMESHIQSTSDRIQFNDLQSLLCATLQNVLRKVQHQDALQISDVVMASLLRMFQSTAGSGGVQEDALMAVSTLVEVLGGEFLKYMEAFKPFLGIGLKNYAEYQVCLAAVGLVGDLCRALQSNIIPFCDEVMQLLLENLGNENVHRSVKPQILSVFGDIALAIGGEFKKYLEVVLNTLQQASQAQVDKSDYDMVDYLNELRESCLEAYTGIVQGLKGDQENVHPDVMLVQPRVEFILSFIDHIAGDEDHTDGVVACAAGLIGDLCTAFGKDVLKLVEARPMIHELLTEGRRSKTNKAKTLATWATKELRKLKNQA
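FRET biosensor (snurportin 1 IBB flanked by EYFP and cerulean), 50 nM, with compound 5 min, then 0.125 microM importin beta in PBS, 1 mM DTT, 0.02% Tween-20, 0.1% BSA. CFP/YFP ratio read after 45 min at room temperature; pre-read flags interference.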
miR-21 FLuc – raises the signal of a miR-21 reporter; HeLa miR-21 FLuc reporter, luciferase, 48 h; Potency, µM (titrated, usually from 38.3 µM), for the others: at the top dose reporter change, positive = more light; 340,000 tested, under 10 active; AID 2288; active = well fitted rising curve with a large enough effect; inconclusive = small, poorly fitted or top-dose-only effect; inactive = no such curve, though single readings can be large or run the other way;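 further: % of control where 0% means no effect; miR-21 action dims this reporter so a rising signal means less miR-21 action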
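HeLa miR-21-FLuc reporter line, endogenous miR-21; 2000 cells/well in DMEM/10% FBS; compound titration up to ~40uM final, 48 h, 37 degree Celsius; luciferase detection reagent, 15 min lysis, CCD luminescence.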
* marks the source's active call; other numbers are inactive results; u = inconclusive; x = no result given; & = joins results of further samples. Only part of the results is shown; count on the stated rates, not on these rows.

SMILES	Rango release inh	GLA inh pH 4.5	Rango-impB inh	miR-21 FLuc
C=CCNc1nc(C(=O)OCC(=O)NCc2cccc(Cl)c2)cs1	1%	x	-3.1%	x
CCOc1ccc(C(=O)C(C)OC(=O)Cn2[nH]c(=O)c3ccccc3c2=O)cc1 (centres undefined)	2%	x	2.1%	-3%
N#Cc1c(SCc2ccccc2)nc(N2CCOCC2)c2c1CCCC2	13%	0	-0.1%	-14%
COc1ccc(NC(=S)NCCCn2ccnc2)cc1	11%	x	-0.9%	x
Cc1c(C(=O)NC2CCCC2)oc2ccccc12	12%	x	-4.1%	x
O=C(CSc1nccn(-c2ccc(Br)cc2)c1=O)NC1CCCC1	15%	x	2.7%	x
CC(=O)NC12CC3CC(C1)CC(C(=O)N1CCN(S(=O)(=O)c4cccc([N+](=O)[O-])c4)CC1)(C3)C2	5%	x	-0.6%	x
CC(=O)c1ccc(NC(=O)NC2CCCCCCC2)cc1	-4%	x	1.2%	-54%
COc1cc(NC(=S)N2CCN(S(=O)(=O)c3ccccc3)CC2)cc(OC)c1	-18%	x	0.2%	-2%
COc1ccc(C2C(=O)c3ccccc3C2=O)cc1	-12%	1	-0.3%	-34%
NNC(=O)C12CC3CC(C1)CC(n1ncnn1)(C3)C2	0%	1	0.4%	-13%
CCOC(=O)c1nn(-c2ccccc2C)c2nc(CC(C)C)c(C#N)c(=O)n12	2%	-13	-1.3%	-2%
COc1ccccc1N(O)C1CC(=O)N(c2ccc(F)cc2)C1=O (centres undefined)	-10%	10	-1.6%	-6%
C=CCn1c(SCC(=C)C)nc2c1c(=O)[nH]c(=O)n2C	9%	8	-3.6%	-21%
CC(=O)c1ccc(N2CCN(C(=O)C3CCCN(c4ncnc5c4nc4n5CCCCC4)C3)CC2)cc1 (centres undefined)	-7%	x	1.4%	21%
CCCCN(C(=O)/C=C/c1ccco1)c1c(N)n(CCC)c(=O)[nH]c1=O	14%	-13	0.6%	-4%
Cc1cc(NCCc2ccccc2F)n2ncnc2n1	0%	7	-1.5%	1%
C=CCN1/C(=C(\C#N)C2=NS(=O)(=O)c3ccccc32)N(C)c2ccccc21	-7%	-1	-6.1%	1%
COc1cc(NS(=O)(=O)c2ccc(Nc3nc(-c4ccccn4)cs3)cc2)nc(OC)n1	-1%	0	u	0%
Cc1cc(NC(=O)c2ccc(-c3ccc(F)c(Cl)c3)o2)no1	2%	6	0.4%	-8%
CCOC(=O)N1CCN(S(=O)(=O)c2ccc(C(=O)Nc3sc4c(c3C(N)=O)CCN(CC)C4)cc2)CC1	u	x	u	3%
CCOc1ccccc1OCCCC(=O)N1CCN(S(=O)(=O)c2cc(F)ccc2F)CC1	-11%	x	1.2%	x
Oc1ccc(/C=N/NC(=S)NCC2CCCO2)cc1 (centres undefined)	18%	-10	-0.3%	-11%
OC12CCCCC1C(c1ccc3c(c1)OCO3)N(Cc1ccccc1F)CC2 (centres undefined)	16%	-8	7.4%	16%
Cc1cc(NS(=O)(=O)c2ccc(NC(=O)CCCOc3cccc(C)c3C)cc2)no1	2%	x	0.5%	-12%
O=C(O)CN1CCN(Cc2ccc(Cl)cc2)C1=O	15%	3	1.2%	-14%
Cc1nc(NC(=O)COC(=O)CCc2ccccc2)c(Cl)cc1Cl	-11%	x	-1.8%	x
CC(C)Cn1c2nc3ccccc3nc2c2c(=O)n(CCN3CCOCC3)cnc21	-18%	5	-1.5%	-1%
Cc1c(NS(=O)(=O)N2CCCCC2)c(=O)n(-c2ccccc2)n1C	-16%	4	-0.6%	-1%
O=C(NC(=S)Nc1ccccc1N1CCCC1)c1ccccc1[N+](=O)[O-]	-9%	-20	-2.7%	-6%
CCCCC(=O)Nc1ccc(C(=O)NN2C(=O)c3ccccc3C2=O)cc1	-8%	4	-3.8%	-2%
CC(C)CCn1c(SCC(=O)NC2CCS(=O)(=O)C2)nc2cc(Cl)ccc2c1=O (centres undefined)	-8%	x	-0.8%	x
CCC(=O)N1CCc2cc(S(=O)(=O)N3CCCC3)ccc21	-1%	x	-1.0%	-3%
Cc1ccc(NC(=O)CSc2nc3ccccc3nc2N2CCOCC2)cc1	1%	x	2.6%	8%&10%
Cc1ccc(-c2n[nH]c3c2CCC3)cc1	10%	-18	0.3%	-30%
CC(C)N1CN(c2ccccc2)C(=S)N(c2ccccc2)C1	-6%	8	-1.4%	1%
CCOC(=O)C1=CN(Cc2cccc(-c3ccc(Cl)nc3)c2)S(=O)(=O)N(C)C1C (centres undefined)	13%	x	0.0%	x
Cc1noc(C)c1NC(=O)N(C)C[C@H]1Oc2c(NC(=O)Nc3ccc(C(F)(F)F)cc3)cccc2C(=O)N([C@H](C)CO)C[C@@H]1C	-16%	x	0.4%	x
CCCNC(=O)C1=C(C)C(=O)OC12CCC(C)CC2 (centres undefined)	-9%	-6	-0.3%	-10%
COc1ccc(CCNC(=O)c2ccc3nc(N4CCCCC4)sc3c2)cc1OC	-1%	x	-5.4%	-5%
CC1CCCC(C)N1CCCNC(=O)CCn1c(=O)c2cccn2c2cccnc21 (centres undefined)	-14%	x	-0.1%	-2%
CN(C(=O)CN1CCN(c2cnn(-c3ccccc3)c(=O)c2Cl)CC1)C1CCS(=O)(=O)C1 (centres undefined)	30%	x	-2.4%	x
NC(=O)CSc1ncc(-c2ccccc2)[nH]1	-2%	2	-1.0%	-21%
CCCCN(CCCC)S(=O)(=O)c1c(C)[nH]c(=O)[nH]c1=O	18%	2	-0.3%	6%
CC(C)NC1=C(Cl)C(=O)c2ccccc2C1=O	1%	-3	6.5%	2%
O=C1CCc2cc(S(=O)(=O)NC(C(=O)N3CCN(c4ccccn4)CC3)c3ccccc3)ccc2N1 (centres undefined)	0%	-1	-2.2%	5%
O=C(c1ccc(Cl)cc1)N1CCN(c2ccc([N+](=O)[O-])c(NCc3cccnc3)c2)CC1	-5%	x	-0.9%	x
CN(C)NC(=S)Nc1ccc2nc(-c3ccccn3)c(-c3ccccn3)nc2c1	-3%	-4	6.9%	-10%
CCOC(=O)c1c(CN2CCOCC2)n(-c2ccccc2)c2cc(Br)c(O)c(CN(C)C)c12	31%	0	-4.8%	-6%
COc1ccccc1NC(=O)C(=O)c1cn(CC(=O)N2CCOCC2)c2ccccc12	1%	x	0.7%	-42%

Taken from above (16 entries):
SMILES	Rango release inh	GLA inh pH 4.5	Rango-impB inh	miR-21 FLuc
CC(C)CCn1c(SCC(=O)NC2CCS(=O)(=O)C2)nc2cc(Cl)ccc2c1=O (centres undefined)	-8%	x	-0.8%	x
CCC(=O)N1CCc2cc(S(=O)(=O)N3CCCC3)ccc21	-1%	x	-1.0%	-3%
Cc1ccc(NC(=O)CSc2nc3ccccc3nc2N2CCOCC2)cc1	1%	x	2.6%	8%&10%
Cc1ccc(-c2n[nH]c3c2CCC3)cc1	10%	-18	0.3%	-30%
CC(C)N1CN(c2ccccc2)C(=S)N(c2ccccc2)C1	-6%	8	-1.4%	1%
CCOC(=O)C1=CN(Cc2cccc(-c3ccc(Cl)nc3)c2)S(=O)(=O)N(C)C1C (centres undefined)	13%	x	0.0%	x
Cc1noc(C)c1NC(=O)N(C)C[C@H]1Oc2c(NC(=O)Nc3ccc(C(F)(F)F)cc3)cccc2C(=O)N([C@H](C)CO)C[C@@H]1C	-16%	x	0.4%	x
CCCNC(=O)C1=C(C)C(=O)OC12CCC(C)CC2 (centres undefined)	-9%	-6	-0.3%	-10%
COc1ccc(CCNC(=O)c2ccc3nc(N4CCCCC4)sc3c2)cc1OC	-1%	x	-5.4%	-5%
CC1CCCC(C)N1CCCNC(=O)CCn1c(=O)c2cccn2c2cccnc21 (centres undefined)	-14%	x	-0.1%	-2%
CN(C(=O)CN1CCN(c2cnn(-c3ccccc3)c(=O)c2Cl)CC1)C1CCS(=O)(=O)C1 (centres undefined)	30%	x	-2.4%	x
NC(=O)CSc1ncc(-c2ccccc2)[nH]1	-2%	2	-1.0%	-21%
CCCCN(CCCC)S(=O)(=O)c1c(C)[nH]c(=O)[nH]c1=O	18%	2	-0.3%	6%
CC(C)NC1=C(Cl)C(=O)c2ccccc2C1=O	1%	-3	6.5%	2%
O=C1CCc2cc(S(=O)(=O)NC(C(=O)N3CCN(c4ccccn4)CC3)c3ccccc3)ccc2N1 (centres undefined)	0%	-1	-2.2%	5%
O=C(c1ccc(Cl)cc1)N1CCN(c2ccc([N+](=O)[O-])c(NCc3cccnc3)c2)CC1	-5%	x	-0.9%	x

Further records follow.
SMILES	Rango release inh	GLA inh pH 4.5	Rango-impB inh	miR-21 FLuc
NC(=S)N/N=C/c1ccc(/C=N/NC(N)=S)cc1	-10%	2	u	-5%
COC(=O)CCCC(=O)OC	3%	x	7.0%	x
Cc1noc(C)c1NC(=O)N(C)C[C@H]1Oc2ccc(NC(=O)NC(C)C)cc2C(=O)N([C@H](C)CO)C[C@H]1C	-24%	x	-2.2%	x
CCCNC(=O)c1[nH]c(C)c(C(C)=O)c1C	3%	-1	0.6%	-3%
Cc1nc(SCc2ccc(O)c([N+](=O)[O-])c2)n[nH]1	1%	3	-1.9%	-10%
CC1CCC2(CC1)NC(=O)N(CC(=O)N1c3ccccc3CC1C)C2=O (centres undefined)	-6%	x	2.9%	x
Cc1ccc(NC(=O)c2ccn(C)n2)c(Br)c1	0%	8	-2.8%	-35%
O=C(N/N=C/c1ccccc1)C1CCCN1C(=O)c1cc([N+](=O)[O-])cc([N+](=O)[O-])c1 (centres undefined)	0%	x	-2.5%	3%
CCOC(=O)C[C@H]1c2ccc(C(F)(F)F)cc2S(=O)(=O)N1c1cccc(OC)c1	11%	x	1.5%	x
CC(C)Sc1n[nH]c(=O)n1-c1cccc(C(F)(F)F)c1	u	3	1.5%	1%
COC(=O)CCSc1cc(NCCOC(C)=O)c([N+](=O)[O-])c2nonc12	-16%	-5	u	7%
CC(=O)Nc1ccc(-c2nc(C)c(C(C)=O)n2O)cc1	-2%	-3	-1.4%	-2%
CCOc1cccc(C2c3c(oc4cc(C)c(C)cc4c3=O)C(=O)N2CCCN(C)C)c1 (centres undefined)	x	-2	x	-20%
COc1ccc(S(=O)(=O)N2CCCc3ccccc32)cc1[N+](=O)[O-]	1%	x	-1.8%	8%
COc1ccccc1NC(=O)COc1ccc(Br)cc1CNC1CCCC1	13%	6	-1.9%	-6%
C=CCN1C(=O)C(Cc2ccccc2)S/C1=N/N=C/c1cccs1 (centres undefined)	11%	-4	-0.4%	0%
CC(C)=CCC(C)(C)C1OCCN1C(=O)c1ccccc1 (centres undefined)	19%	-4	-0.1%	2%
COc1ccc(NC(=O)c2oc3ccccc3c2NC(=O)c2ccc(OC)c(OC)c2)c(OC)c1	41%	x	-5.3%	x
COc1cccc(CN2CC(C(=O)NCc3cccc(N4CCCC4)c3)CCC2=O)c1 (centres undefined)	3%	x	7.1%	-1%
CCC(CC)NC(=O)CO/N=C/c1ccccc1OC(F)F	-12%	-2	-0.2%	-1%
COc1ccc2cc(C)c3nnc(SCC(=O)Nc4cc(OC)c(OC)cc4C(=O)O)n3c2c1	2%	-16	-0.2%	-1%
Cc1sc2ncn(CC(=O)Nc3c(F)cccc3F)c(=O)c2c1S(=O)(=O)N1CCC(C)CC1	-5%	-2	-3.6%	1%
CCCc1cnc(N2CCN(C(=O)c3c(-c4ccccc4)noc3C)CC2)nc1	-2%	-5	-2.3%	22%
COC(=O)c1ccccc1NC(=O)CSCC(=O)Nc1ccccc1OC	0%	3	-2.6%	-3%
O=C(N/N=C/c1ccc(O)cc1)c1ccc(COc2cc(Cl)ccc2Cl)o1	-6%	-18	-1.2%	8%
CCC1CC(CSC(=N)N)OC1=O (centres undefined)	-21%	0	-2.6%	6%
O=c1[nH]c2ccc(S(=O)(=O)N3CCC(Cc4ccccc4)CC3)cc2o1	-7%	7	-6.3%	-2%
CCOC(=O)Cc1csc(NC(=O)CCN2C(=O)c3cccc([N+](=O)[O-])c3C2=O)n1	12%	x	0.5%	-1%
CN(C)S(=O)(=O)c1ccc(Cl)c(NC(=O)COC(=O)/C=C/c2ccc3ccccc3n2)c1	12%	x	5.5%	x
COc1cc(-n2c(C)nc3cc(C(=O)NCC4CCCO4)ccc32)cc(OC)c1OC (centres undefined)	12%	x	3.1%	-11%
